Vaccinia mCherry – qHTS for Stage-Specific Inhibitors of Vaccinia Orthopoxvirus: mCherry Reporter Primary qHTS; Vaccinia virus mCherry reporter infection, fluorescence; about a quarter of the inactives have no number; Potency, µM (titrated, usually from 36.5 µM), inactives show at the top dose activity change, negative = inhibition, usual class: inhibitors; actives 0.63% (n = 310,000); AID 720579, 2013; active = well fitted inhibition curve with a large enough effect; inconclusive = small, poorly fitted or top-dose-only effect; inactive = no such curve, though single readings can be large or run the other way; tested in A549 cells; note: nearly all actives have a fitted effect of over 35% in size; inactives centre near -10
Vaccinia Venus – qHTS for Stage-Specific Inhibitors of Vaccinia Orthopoxvirus: Venus Reporter Primary qHTS; Vaccinia virus Venus reporter expression, fluorescence; Potency, µM (series often up to 36.5 µM), for inactives: at the highest dose activity change, negative = inhibition, hits mostly inhibitors; actives 0.46% (n = 330,000); active means well fitted inhibition curve with a large enough effect; inconclusive means small, poorly fitted or top-dose-only effect; inactive means no such curve, though single readings can be large or run the other way; tested in A549 cells; note: nearly all actives have a fitted effect of over 30% in size; inactives centre near -10
* marks the source's active call; other numbers are inactive results; i = inactive; ? = inconclusive; nt = no result given; & = joins results of further samples; [ ] = remark or other dose. % is set by controls: 0 for no effect and ±100 for the full control effect; potency is the fitted concentration of half-maximal effect.

SMILES | Vaccinia mCherry | Vaccinia Venus
COc1ccc(CNC(=O)CN2N=C(c3ccc(Cl)cc3)CCC2=O)cc1 | -13% | -14%
Cc1cc(C)n(-c2cc(N3CCN(C(=O)c4cccc(Br)c4)CC3)ccc2[N+](=O)[O-])n1 | -16% | ?
Cc1ccc(C2=NOC(C)(c3nnc(-c4ccc(Cl)cc4)o3)C2)cc1 (configuration not stated) | i | -15%
COc1cccc(/C=C/C(=O)OCC(=O)NCc2ccc(Cl)cc2)c1 | -2% | -4%
O=C(NN1CCOCC1)c1c(-c2ccccc2)sc2ccccc12 | -2% | -9%
CC1=C(C(=O)Nc2cccc([N+](=O)[O-])c2)C2(CCC(C)CC2)OC1=O (configuration not stated) | -21% | -12%
CCn1c2ccccc2c2cc(NC(=O)COC(=O)c3cc(S(=O)(=O)N4CCCCC4)ccc3Cl)ccc21 | ? | ?
O=C(CCc1ccccc1)Nc1nc2c(F)cc(F)cc2s1 | i | -3%
CN(C)CCn1c(C(=O)O)cc2ccccc21 | nt | 0%
COc1ccc2c(c1)CC(NC(=O)Nc1cc(Cl)ccc1OC)CO2 (configuration not stated) | -14% | -14%
COc1ccc(-n2nc(C(=O)Nc3ccc(Br)cc3C)c3c4ccccc4n(C)c3c2=O)cc1 | -11% | 6%
CC1CCCCC1NC(=O)c1ccc(NS(=O)(=O)c2ccc3[nH]c(=O)[nH]c3c2)cc1 (configuration not stated) | i | -9%
Cc1ncc(CN2CCCC(C(=O)Nc3ccc(-c4cscn4)cc3)C2)cn1 (configuration not stated) | -11% | -14%
CSc1nncc(-c2ccc(F)c(F)c2)n1 | -8% | -17%
CN(C)c1ccc(CNC(=O)C2(C)Cc3c(-c4ccc5c(c4)OCO5)ccnc3O2)cc1 (configuration not stated) | -15% | ?
CCOC(=O)c1nn(-c2ccc(C)cc2)c(C)c1C(C)=O | -26% | -18%
COC(CNC(=O)C(=O)NCC1OCCN1C(=O)c1ccc(Cl)cc1)OC (configuration not stated) | i | 2%
Cc1ccc(-c2nnn(CC(=O)N(Cc3ccco3)C(C(=O)NC(C)(C)C)c3ccc(C)o3)n2)o1 (configuration not stated) | ? | ?
CC(=O)c1ccc2c(c1)CC(C)C(=O)N2C (configuration not stated) | -7% | -2%
COc1cccc(CC2(CO)CCCN(CC3=Cc4cc(Cl)ccc4OC3)C2)c1 (configuration not stated) | -16% | -12%
Cc1ccc(Sc2nnc(-c3ccccc3)cc2C#N)cc1 | nt | -26%
CC1(C(=O)NC(=S)NNC(=O)c2ccncc2)CCCCC1 | ? | ?
O=C(Cn1c(COc2ccccc2)nc2ccccc21)Nc1cc(Cl)cc(Cl)c1 | i | -10%
Cc1nnsc1S(=O)c1ccccc1Cl (configuration not stated) | -5% | -13%
O=C(NC(=S)NCCC1=CCCCC1)c1ccco1 | i | -13%
COC(=O)c1ccc(-n2cncn2)c([N+](=O)[O-])c1 | -4% | 6%
O=C1NC(=O)C(Cc2ccccc2)(c2cccnc2)N1 (configuration not stated) | i | -24%
O=c1cc(N2CCCCC2)c(-c2ccccc2)nn1Cc1cccc(Cl)c1 | nt | -5%
CCCNS(=O)(=O)c1ccc(OCC(=O)Nc2ccc3c(c2)OCO3)cc1 | -14% | 0%
Cc1ccc(CNC(=O)Cc2cccs2)cc1 | nt | -11%
Cc1cccc(NC(=O)c2cccnc2)c1C | i | -10%
Cc1ccc(-c2[nH]nc3c2C(c2ccoc2)C(C#N)=C(N)O3)cc1C (configuration not stated) | -5% | -9%
O=C(Nc1ccc(N2CCN(c3ccc(C(F)(F)F)cn3)CC2)nc1)c1cccs1 | -6%[7.34 µM] | -10%[7.34 µM]
Cc1ccc(C(=O)NC(CCc2ccccc2)C(=O)O)cc1 (configuration not stated) | -13% | -5%
CCn1nnc(NC(=O)C(c2ccccc2)c2ccccc2)n1 | -2% | -13%
Cc1cccc(C(=O)OCC(=O)NCc2cccs2)c1 | i | -11%
COc1ccccc1C(=O)NC(=O)Nc1ccc(-n2nc(C(F)(F)F)cc2C(F)(F)F)cc1 | -22% | -22%
O=C(NC1CCCC1)c1cn(C2CCCN(Cc3ccc4c(c3)OCCO4)C2)nn1 (configuration not stated) | 1% | 2%
OCC[C@H]1C[C@H](O)[C@@H](O)[C@]2(OCc3ccccc32)O1 | i | -17%
Cc1cccc(NC(=S)N(Cc2cccc(Br)c2)CC2CCC(C(=O)O)CC2)c1 (configuration not stated) | -16% | -3%
c1ccc(-c2nc(N3CCOCC3)cc(N3CCOCC3)n2)cc1 | -5% | -8%
CCOC(=O)C1=CCC(c2ccccc2C)N(S(=O)(=O)c2ccc(C)cc2)C1 (configuration not stated) | 24% | 9%
CC1CC2(CCCCC2)Nc2ccc3ccccc3c21 (configuration not stated) | 122%[activator] | 105%[activator]
Cc1cccc(CSc2nn3c(=O)c(C)nnc3s2)c1 | -4% | -3%
O=C(NCc1cccc(C(F)(F)F)c1)C1CC(c2ccccc2C(F)(F)F)=NO1 (configuration not stated) | ? | ?
O=c1n(Cc2ccccc2Cl)c2ccccc2c2nc(-c3ccccc3)nn12 | -26% | -14%
CCC(CC)C1C(C#N)=C(N)Oc2cc(C)oc(=O)c21 (configuration not stated) | 0% | -10%
COc1cc(OC)c2ccc(=O)oc2c1C(CC(=O)N1CCOCC1)c1ccc(N(C)C)cc1 (configuration not stated) | i | -5%
CCOC(=O)C1=C(C)NC(=O)NC1c1ccccc1Cl (configuration not stated) | -9% | -9%
CN(Cc1ccccc1)C(=O)CSc1nc2ccccc2c(=O)n1Cc1ccco1 | ? | -2%

Continued:
SMILES | Vaccinia mCherry | Vaccinia Venus
COc1cccc(NC(=O)C2CCN(c3cnccn3)CC2)c1 | i | -10%
CC(=O)c1cc(C#N)c(SCC(=O)Nc2nccs2)nc1C | i | -22%
c1cncc(-c2nnc(-c3cccs3)o2)c1 | -2% | 0%
Cn1c(=O)c2c(nc(N3CCc4ccccc4C3)n2Cc2ccc(Br)cc2)n(C)c1=O | nt | -21%
O=C(Nc1cccc(Cl)c1)N1N=CCC1c1ccccc1 (configuration not stated) | -22% | -10%
CCCCn1c(=O)[nH]c(=O)c2c1nc(-c1ccc3ccccc3c1)n2CC | i | -23%
Cn1ncc(C#N)c1NC(=O)C1CC(c2c(F)cccc2Cl)=NO1 (configuration not stated) | i | -5%
O=C1Nc2ccccc2/C1=C/c1ccccc1Cl | i | -20%
Cc1cccc(C)c1-n1nnnc1C(CCc1ccccc1)N1CCC2(CC1)C(=O)NCN2c1ccccc1 (configuration not stated) | 27% | -14%
CCC(CC)C(=O)Nc1nnc(S(=O)(=O)N2c3ccccc3CC2C)s1 (configuration not stated) | -11%&-5% | -23%&-2%

4 compounds drawn at random from the list so far, as already listed:
SMILES | Vaccinia mCherry | Vaccinia Venus
Cc1cccc(C)c1-n1nnnc1C(CCc1ccccc1)N1CCC2(CC1)C(=O)NCN2c1ccccc1 (configuration not stated) | 27% | -14%
O=C(Nc1cccc(Cl)c1)N1N=CCC1c1ccccc1 (configuration not stated) | -22% | -10%
COc1cccc(NC(=O)C2CCN(c3cnccn3)CC2)c1 | i | -10%
CCC(CC)C(=O)Nc1nnc(S(=O)(=O)N2c3ccccc3CC2C)s1 (configuration not stated) | -11%&-5% | -23%&-2%

Going on with the list.
SMILES | Vaccinia mCherry | Vaccinia Venus
CCOC(=O)N1CCN(c2cc(C)c([N+](=O)[O-])cc2F)CC1 | i | -1%
Cn1cc(Br)c(C(=O)NNC(=O)Cc2ccc(Cl)cc2)n1 | 8% | -1%
Cc1ccc(CNC(=O)c2c[nH]n3c(=O)c(Cc4ccc(F)cc4Cl)c(C)nc23)cc1 | 2%[7.34 µM] | -4%[7.34 µM]
O=C(NNC(=O)c1ccc([N+](=O)[O-])cc1)c1ccncc1 | i | -14%
CN(Cc1ccco1)C(=O)c1ccc(CNS(=O)(=O)c2ccc3c(c2)C(C)(C)C(=O)N3C)cc1 | -10% | -17%
S=C(NCCC1=CCCCC1)NCc1ccco1 | -25% | -16%
Fc1ccc(OCc2nnc(SCCN3CCOCC3)o2)cc1 | -2% | -6%
Cc1cc(C(=O)OCC(=O)Nc2ccccc2C(F)(F)F)on1 | -15% | -10%
CCOc1ccc(CCN2CN(C3CCCCC3)CNC2=S)cc1OCC | i | -10%
CCCCCCn1nc(C(=O)N(CCOC)c2c(N)n(CCCC)c(=O)[nH]c2=O)c2ccccc2c1=O | -6% | -10%
Cc1ccc(C(=O)N2CCC(C)CC2)cc1NC(=O)c1nsc2ccccc12 | -12% | -12%
N/C(=N\OC(=O)c1cccc(F)c1)c1ccccc1 | -8% | -7%
COc1ccc(S(=O)(=O)N2CCN(Cc3ccc(OC)c(OC)c3)CC2)cc1 | -10% | -18%
COc1ccc(CCNc2cc(C)nc3c(-c4ccccc4OC)cnn23)cc1OC | -14% | -12%
O=C(C1CCCCC1)N1C[C@@H](O)[C@H](n2cc(-c3ccc(F)cc3)nn2)C[C@@H]1c1ccc(Cl)cc1 | i | -30%
COc1ccc(NC(=O)N(C)C[C@H]2Oc3c(NC(=O)Nc4ccccc4)cccc3C(=O)N([C@H](C)CO)C[C@@H]2C)cc1 | 5% | -15%
c1cc2c(nn1)CCc1nonc1-2 | nt | -11%
COc1ccc(N(C)C(=O)c2onc3c2CCCC3)cc1 | -24% | -3%
CCOc1ccccc1NC(=O)Cc1coc2ccc(C)cc12 | i | -11%
CCCCC(=O)N=c1sc2cc(S(C)(=O)=O)ccc2n1C | 3% | -15%
COc1ccccc1CN1CCN(C(=O)c2ccncc2)CC1 | -7%[1.46 µM] | 2%
CC1CCN(c2ccc([N+](=O)[O-])cc2C(=O)N2CCOCC2)CC1 | i | -20%
CCn1c(SC(C)C(=O)NCC2CCCO2)nc2ccccc21 (configuration not stated) | -1% | -11%
COc1ccccc1-c1nnc(SCC(=O)O)n1-c1ccc(C)cc1 | -2% | -4%
O=C(COc1ccccc1)NCCc1cnc[nH]1 | -7% | 0%
CC(C)(C)c1ccc(C(=O)Nc2ccc(Cl)cc2C(=O)c2ccccc2)cc1 | -11% | -13%
S=c1[nH]cnc2sc(Nc3ccccc3)nc12 | ? | -25%
COc1ccc(NS(=O)(=O)c2ccc3nc(COc4ccc5ccccc5c4)[nH]c3c2)cc1 | ? | 28µM*
C[C@H](O)[C@@H]1C(=O)N2CCc3ccc(N4CCN(C)CC4)cc3[C@@H]2C[C@@H]1N(C)C(=O)NC1CCCCC1 | -26% | -8%
C=CCNC(=S)NN=C1CCCCCCC1 | -9% | -7%

At a glance, part of the list above.
SMILES | Vaccinia mCherry | Vaccinia Venus
O=C(COc1ccccc1)NCCc1cnc[nH]1 | -7% | 0%
CC(C)(C)c1ccc(C(=O)Nc2ccc(Cl)cc2C(=O)c2ccccc2)cc1 | -11% | -13%
S=c1[nH]cnc2sc(Nc3ccccc3)nc12 | ? | -25%
COc1ccc(NS(=O)(=O)c2ccc3nc(COc4ccc5ccccc5c4)[nH]c3c2)cc1 | ? | 28µM*
C[C@H](O)[C@@H]1C(=O)N2CCc3ccc(N4CCN(C)CC4)cc3[C@@H]2C[C@@H]1N(C)C(=O)NC1CCCCC1 | -26% | -8%
C=CCNC(=S)NN=C1CCCCCCC1 | -9% | -7%

Further records follow:
SMILES | Vaccinia mCherry | Vaccinia Venus
CCOC(=O)c1sc(NC(=O)C(CC)Sc2nnc3c4ccccc4n(C(C)C)c3n2)nc1C (configuration not stated) | 1% | -2%
CC(C)OC(=O)/C(=C/c1ccco1)c1ccccc1 | -24% | -18%
COc1cc(OC)c2c(-c3ccccc3)cc(=O)oc2c1C(CCN1CCCCC1)c1ccc2c(c1)OCO2 (configuration not stated) | -28% | ?
Cc1ccc(-n2c(SCC(=O)Nc3ccc(N4CCOCC4)cc3)nc3ccccc3c2=O)cc1 | -8% | 0%
COc1cccc(NC(=O)CSc2nc3ccsc3c(=O)n2-c2ccc(C(=O)O)cc2)c1 | -2% | 4%
O=C(COC(=O)CCSc1ccc(Cl)cc1)NCc1ccco1 | i | -9%
O=C1C=CN2CCCCC2CC1 (configuration not stated) | -15% | -10%
CCOC(=O)c1c(C)n(C)c2c(C)cc(O)c(OC(C)=O)c12 | -11% | 6%
CCOC(=O)N1CCN(S(=O)(=O)CCNC(=O)c2ccc(OC)cc2)CC1 | ? | -2%
COc1ccc(Cl)cc1C(=O)NNC(=O)CSc1nnc2ccccn12 | 0% | ?
CCOC(=O)c1cnc(SCC)[nH]c1=O | nt | ?
COc1cccc(CNc2nc3nc(C)cc(=O)n3[nH]2)c1 | -14% | -4%
COCCNC(=O)CSc1nc2ccccc2c(=O)n1CCC(=O)NCCc1ccc(OC)c(OC)c1 | -7% | -19%

Screening data as filed in PubChem BioAssay.
